# Screens deposited in PubChem by several laboratories.
# UCH37 DUB inh = inhibitors of human UCH37 deubiquitinase, primary screen, biochemical, Ub-AMC cleavage, fluorescence; purified proteasome/UCH37; inhibition, % (test concentration not listed); 330,000 tested, 0.33% active; Ubiquitin carboxyl-terminal hydrolase isozyme L5 (Homo sapiens), Q9Y5K5;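 active means mean of two replicates above 20%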;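 further: 0% = compound-free wells with enzyme and 100% = wells lacking proteasome; stock transfer was 100 nL into about 20 µL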
#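 Material: human UCH37 enzyme supplied as purified proteasome complex / Amount: 0.15 nM proteasome as dispensed / Buffer or medium: pH 7.4 Tris-HCl (50 mM) with ovalbumin, ATP-MgCl2, DTT / Times: preincubation 30 min, reaction 25 min, room temperature / Technique: AMC fluorescence from Ub-AMC cleavage, excitation 355 nm, emission 460 nm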
# Ecoli growth = E. coli growth inhibition, primary screen, OD600. OD600 absorbance (test concentration not listed). 330,000 tested, 0.21% active. AID 1053175, 2014. Escherichia coli growth, 23 h; stronger effect = lower value;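 active means OD600 absorbance below the run mean of sample wells minus 3.6 SD, in any replicate, cut at about 0.56 in these data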;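 further: stock transfer was 300 nL into about 60 µL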
# RanGTP-Imp inh = inhibitors of RanGTP-importin-beta interaction, primary screen, biochemical, FRET, CFP-Ran, YFP-importin-beta, homogeneous. inhibition, % (concentration not given with the values). cell-free CFP-Ran/YFP-importin-beta FRET ratio. Ran GTPase (GTP-bound) - importin-beta complex. 300,000 tested, 1.1% active;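 active means most replicates above 15%; inconclusive means exactly half above 15%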;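 further: 0% = DMSO wells and 100% = Ran loaded with GDP instead of GTP; wells of about 40 µL received 100 nL stock; the first replicate is given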
# FGF22 binding = binders of human FGF22 protein, primary screen, FGF22 synaptogenesis inhibitor project, biophysical, thermal shift, single point; recombinant FGF22 thermal shift, SYPRO orange fluorescence; percent of sucrose octasulfate shift, DMSO zero; calls only at 9.99 µM; 340,000 tested, 1.5% active;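 active means melting point raised past a set limit in the mean and every replicate; inconclusive means no clear call; three in four hits are not shown here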
# HNF4A DNA FP = change in binding of human HNF4A to DNA, primary screen, biochemical, fluorescence polarization, FITC-DNA. Hepatocyte nuclear factor 4-alpha (Homo sapiens), P41235. 1 h. activity change, % at 10 µM. 360,000 tested, 0.3% active; in the data active means activity change above about 30%, passing the limit was not always enough;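 further: controls were the assay level and a saturating level of protein; the project sought stronger binding though the title names inhibitors; some compounds called inactive have numbers as strong as hits; positive values seem to mean higher polarization but the record does not say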
# Target sequence (P41235 whole entry, looked up): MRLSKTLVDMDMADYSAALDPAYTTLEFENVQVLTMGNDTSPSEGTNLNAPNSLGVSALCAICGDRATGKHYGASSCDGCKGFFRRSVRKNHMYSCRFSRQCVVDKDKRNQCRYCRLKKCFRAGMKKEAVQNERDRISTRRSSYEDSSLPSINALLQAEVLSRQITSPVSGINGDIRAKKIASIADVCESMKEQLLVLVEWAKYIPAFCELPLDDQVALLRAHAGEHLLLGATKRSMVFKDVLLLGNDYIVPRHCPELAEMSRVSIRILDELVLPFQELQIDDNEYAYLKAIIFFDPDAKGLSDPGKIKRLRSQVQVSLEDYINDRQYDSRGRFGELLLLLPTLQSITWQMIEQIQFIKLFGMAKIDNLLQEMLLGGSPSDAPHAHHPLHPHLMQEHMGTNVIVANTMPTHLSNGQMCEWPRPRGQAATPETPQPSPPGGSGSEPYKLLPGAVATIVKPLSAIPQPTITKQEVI
# AF4-AF9 inh = inhibitors of AF4 peptide binding to AF9, primary screen, biochemical, AlphaScreen, biotin-AF4 peptide, FLAG-AF9, single point; inhibition, % at 10 µM; 350,000 tested, 0.47% active; AID 651704, 2012;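 active means every replicate reaching a set inhibition limit, whatever the replicate mean, cut at about 25% in these data; inconclusive means mean inhibition reaches that limit but some replicates miss it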;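 further: 0% = plate neutral control median and 100% = total signal loss; the record names both 10 and 1 µM as test concentration; the first replicate is given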
# Target sequence (P42568 whole entry, looked up): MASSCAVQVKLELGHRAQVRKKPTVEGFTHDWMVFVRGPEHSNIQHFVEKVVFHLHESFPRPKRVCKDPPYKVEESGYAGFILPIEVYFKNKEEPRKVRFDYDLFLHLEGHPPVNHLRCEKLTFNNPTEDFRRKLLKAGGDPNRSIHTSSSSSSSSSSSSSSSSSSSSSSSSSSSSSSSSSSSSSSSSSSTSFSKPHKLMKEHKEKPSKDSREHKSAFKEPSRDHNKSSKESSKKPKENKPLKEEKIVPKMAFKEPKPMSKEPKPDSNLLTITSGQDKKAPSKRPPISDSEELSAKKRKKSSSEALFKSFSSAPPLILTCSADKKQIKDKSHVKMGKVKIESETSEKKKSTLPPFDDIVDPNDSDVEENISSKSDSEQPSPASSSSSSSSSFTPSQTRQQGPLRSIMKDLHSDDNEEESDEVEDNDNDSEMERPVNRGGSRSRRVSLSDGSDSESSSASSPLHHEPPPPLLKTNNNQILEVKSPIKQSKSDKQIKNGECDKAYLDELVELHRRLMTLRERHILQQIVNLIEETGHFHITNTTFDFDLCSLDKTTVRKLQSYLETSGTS
# Vif A3G = inhibitors of Vif binding to APOBEC3G peptide, primary screen, biochemical, TR-FRET, GST-Vif 1-94, biotin-A3G peptide, dose response retest (AID 1117319); inhibition, %, or IC50 in µM where a hit was titrated; TR-FRET GST-Vif / biotin-A3G peptide binding; higher % means a stronger effect; test concentration not given here; strong numbers were not always called active; Virion infectivity factor (Human immunodeficiency virus type 1 group M subtype B (isolate …; 260,000 tested, 0.57% active;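 active means above the screen mean plus three standard deviations and confirmed in dose response; inconclusive means results disagree or hit not tested in dose response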;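 further: Vif residues 1-94 fused to GST binding biotinylated APOBEC3G peptide 110-148; 0% = full assay without inhibitor and 100% = GST in place of GST-Vif; retest series ran down from 100 µM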
# * = called active by the depositor; i = inactive; u = inconclusive; x = not tested or not shown; & = joins results of further samples.
SMILES,UCH37 DUB inh,Ecoli growth,RanGTP-Imp inh,FGF22 binding,HNF4A DNA FP,AF4-AF9 inh,Vif A3G
C#CCN(C[C@@H]1[C@@H](OC(=O)Nc2cccs2)[C@@H](OC(=O)Nc2cccs2)Cn2c(=O)ccc(=O)n21)S(=O)(=O)c1ccc(C)cc1,x,x,x,i,7.3,-3.8,8.7%
Brc1ccc(-c2nnc(-c3ccco3)o2)cc1,-9.5,0.731,3.9,x,5.1,x,u
CSc1ccc(C2Nc3cccc4cccc(c34)N2)cc1,-5.6,0.645,-5.3,i,-0.8,1.6,x
CCc1c(C)sc(NC(=O)c2cc(CC(C)C)on2)c1C#N,-23.1,0.77,3.2,i,0.7,-11.7,-8.1%
Cc1nn(C(=O)c2c([N+](=O)[O-])cnn2C)c(C)c1Cl,1.0,0.697,4.1,x,1.2,x,x
Cc1cccc(NC(=O)CS(=O)(=O)c2cn(C)c3ccccc23)c1C,-1.4,0.715,2.6,x,3.2,x,-1.5%
CCCCNC(=O)Cc1cc(=O)[nH]c(=O)[nH]1,0.9,0.794,-0.4,i,4.6,-2.5,5.5%
Cn1nnc2cc(C(=O)NCCC3=CCCCC3)ccc21,4.5,0.715,5.5,x,0.3,x,-6.5%
CCCCn1c(O)c2n(c1=O)Cc1ccccc1N=C2c1ccc(OC)cc1,x,x,x,i,0.2,-1.4,x
O=P(O)(CCc1ccccn1)CN1CCCCC1,2.7,0.724,-0.3,x,0.6,x,-2.3%
CCOC(=O)c1[nH]c(C)c(C(=O)Nc2cccc(Cl)c2C)c1C,0.1,0.762,2.1,x,0.8,x,-2.3%
COc1ccc(CCNc2ccc(C(CC(N)=O)NC(=O)c3cc(C)cc(C)c3)cc2[N+](=O)[O-])cc1 (stereo not given),-0.1,0.655,-2.4,i,4.2,3.4,x
CCCCCc1ccc(-c2cn(Cc3cccc(OC)c3)nn2)cc1,3.6,0.684,3.1,i,0.6,6.0,x
Cn1c(=O)c2c(nc(NNC(=O)C(F)(F)F)n2C)n(C)c1=O,2.1,0.674,u,i,-0.8,-5.5,7.0%
O=C(OCC(=O)N1CCOCC1)c1cccc(F)c1,3.0,0.688,7.8,i,-2.2,-0.2,x
O=C(COc1ccc(Br)cc1CNCCc1ccccc1)NCc1ccccc1,2.8,0.644,3.4,i,0.7,x,1.0%
COc1ccc(NC(=S)NC(=O)Cc2ccccc2)cc1,-0.6,0.655,-0.4,i,-0.6,3.2,x
COc1cccc(N2CC(C(=O)Nc3c(C(N)=O)oc4ccccc34)CC2=O)c1 (stereo not given),-1.1,0.646,-1.2,i,1.6,-1.2,2.6%
COc1ccc(CNC(=O)CCc2c(C)nc3ncnn3c2C)cc1,3.6,0.674,0.5,x,0.2,x,13.1%
CCC(=O)N/C(=N/c1nc(C)cc(C)n1)Nc1ccc(C)cc1,-1.1,0.677,-1.4,i,2.1,1.1,-4.2%
O=C1COC(c2ccccc2)C2CCCCN12 (stereo not given),-2.6,0.668,-0.5,i,-1.0,2.2,-3.8%
COc1ccc(C(=O)On2c(-c3ccc(Br)cc3)nc3ccccc3c2=O)cc1,2.1,0.689,0.6,i,-1.7,0.9,x
O=C(NNC(=O)C1COc2ccccc2O1)c1ccccc1O (stereo not given),-13.5,0.649,x,i,-3.1,-0.5,16.5%
O=C(CN1C(=O)NC2(CCCCCC2)C1=O)Nc1ccc(Cl)c([N+](=O)[O-])c1,5.2,0.663,x,i,-3.5,-0.7,x
CCCn1nnnc1NCc1ccccc1OCc1cccs1,0.4,0.697,0.3,i,2.9,-0.7,-0.4%
CCCCN(C(=O)c1cc(CC)c(C)s1)c1c(N)n(CC(C)C)c(=O)[nH]c1=O,3.6,0.701,0.0,i,3.4,2.2,x
CCN(CC)c1ccc(NC(=O)c2cnn(CC)c2)cc1,-2.2,0.706,-1.2,x,7.4,x,u
CCc1cc2c(CN(C)Cc3ccccc3F)cc(=O)oc2cc1O,-62.6,0.651,53.6*,i,3.9,1.3,x
CCOC(=O)c1c(NC(=O)CN2C(=O)NC3(CCC(C)CC3)C2=O)sc(C)c1-c1ccc(C)cc1 (stereo not given),x,x,1.6,x,-3.4,x,-1.7%
CC1=CCC2C(=O)N(c3ccc(C)cc3)C(=O)C2C1 (stereo not given),2.1,0.677,2.7,x,-2.6,x,20.4%
COc1cc(/C=N/NC(=S)NC2CC3CCC2C3)ccc1O (stereo not given),x,x,1.4,i,1.5,9.8,-3.2%
Nc1nnc(CC(=O)Nc2ccccc2)s1,5.5,0.717,-0.3,i,-6.3,0.1,x
CCc1ccc(CNc2ccc(O)cc2)cc1,-2.9,0.739,4.0,x,-5.8,x,>50.6µM*
Cc1nn(C)c(C)c1CN(C)C(=O)C1CCC(=O)N(C2CCCCCC2)C1 (stereo not given),-0.7,0.702,3.5,i,4.5,-1.2,2.4%
COc1cccc(CC(=O)Nc2ccc(N3CCOCC3)c(S(=O)(=O)Nc3ccccc3OC)c2)c1,3.1,0.681,x,i,6.1,5.6,x
Cc1ccc(N=C2NC(=O)/C(=C/c3cn(C)c4ccccc34)S2)cc1C,5.4,0.703,x,i,65.3*,12.9,x

# In another format: results already given
# Results follow in this order: UCH37 DUB inh | Ecoli growth | RanGTP-Imp inh | FGF22 binding | HNF4A DNA FP | AF4-AF9 inh | Vif A3G
COc1cccc(CC(=O)Nc2ccc(N3CCOCC3)c(S(=O)(=O)Nc3ccccc3OC)c2)c1
    3.1 | 0.681 | x | i | 6.1 | 5.6 | x
Cc1ccc(N=C2NC(=O)/C(=C/c3cn(C)c4ccccc34)S2)cc1C
    5.4 | 0.703 | x | i | 65.3* | 12.9 | x
CC1=CCC2C(=O)N(c3ccc(C)cc3)C(=O)C2C1 (stereo not given)
    2.1 | 0.677 | 2.7 | x | -2.6 | x | 20.4%
CCc1ccc(CNc2ccc(O)cc2)cc1
    -2.9 | 0.739 | 4.0 | x | -5.8 | x | >50.6µM*

# The listing continues:
SMILES,UCH37 DUB inh,Ecoli growth,RanGTP-Imp inh,FGF22 binding,HNF4A DNA FP,AF4-AF9 inh,Vif A3G
O=C1/C(=C\c2ccc(O)cc2)SC(=S)N1/N=C/c1ccc(O)cc1,x,x,0.2,i,106.1*,-42.8,-3.8%
COCc1cc(C)nc(N2CCOCC2)c1C#N,-163.1,0.691,u,i,-0.6,-7.6,-2.9%
Cc1cc(C(=O)N/N=C/c2cccc([N+](=O)[O-])c2)c(C)o1,x,x,2.1,x,3.2,x,6.2%
O=C(NCCOc1ccccc1)C1Nc2ccc(OC(F)(F)F)cc2C2C=CCC12 (stereo not given),-5.5,0.711,2.7,x,4.8,x,x
Cc1cc(C)c2nc(N3C(=O)C(O)=C(C(=O)c4ccco4)C3c3ccc(O)cc3)sc2c1 (stereo not given),-2.2,0.677,x,i,0.2,4.0,-1.1%
O=C(O)/C(=C\c1cccc(O)c1)c1ccc(S(=O)(=O)N2CCCC2)s1,x,x,x,i,-7.6,1.5,14.8%
CCCCn1c(N)c(N(CC(C)C)C(=O)COC(=O)c2ccccc2NCCO)c(=O)[nH]c1=O,i,0.745,-3.0,i,5.1,-2.5,0.7%
CNC[C@@H](CC1CCCCC1)NC[C@H](CC(C)C)NCCc1cccc(C(F)(F)F)c1,0.0,x,-0.7,i,-0.2,15.2,x
CCOC(=O)C(C)(C)N(Cc1ccccc1C)S(=O)(=O)c1ccc(Cl)c([N+](=O)[O-])c1,0.3,0.648,-0.5,x,0.0,x,15.3%
Oc1[nH]c2ccccc2c1N=Nc1ccccc1Cl,x,x,x,i,6.9,-2.2,-3.9%
Cc1nc(Cl)c2c(n1)N(CC(N)=O)C(=O)CO2,-1.5,0.673,0.8,i,-1.4,-0.7,-4.3%
Cc1ccc(NC(=O)CC2OC(=O)c3ccccc32)cc1S(=O)(=O)N1CCOCC1 (stereo not given),3.2,0.675,x,i,-4.7,2.9,-10.6%
O=C(COC(=O)c1c(Cl)cccc1Cl)NC1CCCCC1,1.6,0.717,2.3,i,-1.1,-2.6,x
Cn1c(CCNC(=O)c2ccco2)nc2cc(NS(=O)(=O)c3ccc(Cl)cc3)ccc21,6.1,0.724,-0.9,x,2.1,x,1.0%
Cc1cc(C)c(S(=O)(=O)N/N=C/c2ccc([N+](=O)[O-])o2)c(C)c1,x,x,3.2,i,-1.1,-2.8,x
Cn1c(SCc2nc3ccccc3s2)nnc1-c1ccc2c(c1)OCO2,0.6,0.684,2.4,x,-2.7,x,4.7%
O=C(CSc1ncnc2scc(-c3ccccc3)c12)N1CCN(Cc2ccc3c(c2)OCO3)CC1,1.9,0.686,0.1,i,45.7*,8.1,17.4%
O=C(O)c1ccccc1N=Nc1ccc(O)cc1,4.8,x,6.9,i,-9.4,-4.4,x
CCOC(=O)[C@H]1[C@H]2COc3ccc(OC)cc3[C@@H]2N2C(=O)[C@H](C)NC(=O)[C@@]12C,-0.3,x,x,i,5.3,2.8,x
O=C(C1=C[C@@H]2[C@H]3C(=O)N(c4ccc(Cl)cc4)C(=O)[C@H]3[C@@H](C(=O)c3ccc(Cl)cc3)N2C=C1)c1ccccc1,1.5,0.681,7.1,i,10.9,-8.5,u
COc1ccc(-c2noc(-c3ccoc3C)n2)cc1OC,-1.0,0.635,2.5,i,3.5,0.2,x
COc1cccc2c1[C@@H]1CN(CCCCn3c(=O)[nH]c4c(sc5ncc(-c6ccccc6)nc54)c3=O)C[C@@H]1CO2,3.8,x,x,i,0.6,-2.3,x
Cc1ccc(/C(N)=N/OC(=O)/C=C/c2ccccc2)cc1,4.5,0.706,1.7,x,0.5,x,-1.6%
Cc1[nH]c(=O)[nH]c(=O)c1/C=N/NC(=O)CCCCCNC(=O)OC(C)(C)C,x,x,-1.3,i,-0.5,-4.0,x
CCCCc1ccc(N2C(=NC(=O)C3CCCO3)SC3CS(=O)(=O)CC32)cc1 (stereo not given),4.0,0.675,-2.3,i,0.6,-1.8,x
COc1ccc(Cn2cccc(NC(=O)Nc3ccc(C#N)cc3)c2=O)cc1,-1.5,0.702,5.7,x,-3.4,x,1.1%
CCn1c(CSc2ncccn2)nnc1SCC(=O)N1c2ccccc2CC1C (stereo not given),2.8,0.725,-1.6,i,4.9,-3.8,-1.0%&-1.4%
CN1CCN(c2ccc(NC(=O)c3sc4ccccc4c3Cl)cc2)CC1,-31.1,0.607,-2.9,i,1.1,0.7,19.6%
COc1cccc(-c2onc3ccc(C(C)=O)cc23)c1,-31.9,0.673,6.4,i,-1.7,2.9,5.4%
COCCN(Cc1cc2cc3c(cc2nc1Cl)OCO3)C(=O)Nc1ccc(F)cc1,3.6,0.694,-1.3,i,-1.0,-18.2,-1.0%
COc1ccc(OC)c(C2=NOC(C(=O)NCC3CCCO3)C2)c1 (stereo not given),-0.9,0.639,3.4,i,1.4,2.3,4.2%
O=C(Nc1cc(Cl)ccc1Cl)c1ccco1,0.6,0.622,1.1,i,-0.1,-20.4,x
Cc1nc2ncnn2c(C)c1CCC(=O)N1CCN(C(=O)c2ccco2)CC1,2.8,0.685,-11.9,x,-0.3,x,3.3%
Cn1nc(C(C)(C)C)cc1C(=O)N1CCCCC1c1cc(C(=O)Nc2cccc3c2CCCC3)no1 (stereo not given),x,x,x,i,-1.8,-1.8,x
COc1cc(C(=O)NCCC(C)C)ccc1OCc1ccc(Cl)cc1Cl,1.7,0.712,-4.0,x,0.4,x,-5.8%

# An excerpt (hit frequency here may not be typical).
